Source: PubChem BioAssay (several laboratories)
Env fusion inh – blocks HIV Env-driven cell-cell fusion; 1.1% of 360,000 active; HeLa-JRFL Env/CEM21 cell fusion, luciferase; inhibition, % at 12.3 µM; AID 651610;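 active means mean replicate inhibition score of at least 50 and every replicate individually at or above 50; inconclusive means only one of the two criteria met; inactive means mean below 50 and not all replicates reaching 50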;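 further: 0% = plate neutral controls and 100% = maraviroc near 300 nM; one replicate is shown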
Yeast UUG start – yeast start codon fidelity modulation | 0.13% of 350,000 active | AID 602363 | activity score, % at 18.7 µM | S. cerevisiae UUG-firefly luciferase reporter, luminescence/redox ratio;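 active means replicate mean at a twofold rise or more, about +100% in these data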;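 further: firefly luciferase made from a UUG start codon reports start codon fidelity; reporter light over untreated wells divided by growth signal over untreated wells; some hits fall short of that in this replicate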
PABP FP inh – blocks human PABP binding to poly(A) RNA. P11940. fluorescence polarization. inhibition, % at 35 µM. 1% of 290,000 active. AID 2014;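 active means 50% or more with normal probe brightness, or confirmed in later tests; inconclusive means above 50% with abnormal brightness, or retests that disagree; inactive means below 50% or failed in later tests; about a fifth of its hits are not listed in these tables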;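 further: calls also rest on retests at 20 µM and on dose response follow-up; controls were probe without protein and protein plus probe with vehicle; some compounds called inactive have numbers as strong as hits; many hits fall short of the cut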
Rce1 inh – blocks yeast Ras-converting enzyme | calls only | 0.27% of 290,000 active | yeast membranes, quenched prenylated peptide cleavage fluorescence;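 active means fall in fluorescence gain of 50% or more versus controls, with final raw signal at or below 3038400; inconclusive means same 50% fall but final raw signal above 3038400; inactive means fall in fluorescence gain under 50%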;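 further: plate controls were neutral control wells for no effect and wells lacking membranes for full effect; tested at 10 µM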
Target sequence (Q03530 whole entry, looked up): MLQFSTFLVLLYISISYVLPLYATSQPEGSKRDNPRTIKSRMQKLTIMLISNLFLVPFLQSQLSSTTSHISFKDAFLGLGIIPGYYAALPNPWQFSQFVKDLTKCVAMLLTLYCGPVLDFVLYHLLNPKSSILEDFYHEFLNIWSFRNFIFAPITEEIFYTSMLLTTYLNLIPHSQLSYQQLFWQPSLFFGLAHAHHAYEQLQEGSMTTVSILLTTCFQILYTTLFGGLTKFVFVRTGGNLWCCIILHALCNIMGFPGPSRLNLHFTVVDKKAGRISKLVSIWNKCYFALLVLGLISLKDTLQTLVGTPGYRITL
MT1-MMP act inh – blocks activation of human MT1-MMP. HT1080 RFP-PRO-GFP cells, GFP/RFP ratio fluorescence, overnight; percent of plate control window, DMSO zero. 0.061% of 360,000 active. GFP/RFP ratio change, % at 20 µM;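 active means GFP/RFP ratio change of at least 30% with cell ATP level not reduced by more than half and red fluorescence within 50% of control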; further: strong numbers were not always called active
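system = RFP-PRO-GFP reporter HT1080 cells | dosing = 20 µM single dose, 1% DMSO | timing = overnight cell settling, then overnight compound exposure, 37 °C, 5% CO2 | read-out basis = GFP/RFP fluorescence ratio | controls = DMSO and RFP-L50D-GFP cell wells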
CSC inhib – cancer stem cell inhibition | cancer stem cell-like cells viability, luminescence | inhibition, % at 7.5 µM | 1.1% of 300,000 active | AID 2717;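 active means mean at 75% or more and at least half the replicates too; inconclusive means mean and replicates disagree; tested in HMLE shEcad cells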;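 further: 0% = median of negative and 100% = median of positive control wells; the first replicate is given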
eIF4H FP inh – inhibitors of RNA binding by human eIF4H | AID 2012 | 0.94% of 290,000 active | eIF4H fluorescence polarization binding assay | Q15056 | inhibition, % at 35 µM;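 active means 50% or more with normal probe brightness, or confirmed in later tests; inconclusive means above 50% with abnormal brightness, or retests that disagree; inactive means below 50% or failed in later tests; about a fifth of its hits are not listed in these tables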;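 further: calls also rest on retests at 20 µM and on dose response follow-up; 0% = protein and probe with vehicle and 100% = probe without protein; strong numbers were not always called active; many hits fall short of the cut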
MT1-MMP act inh RFP – further read-out of MT1-MMP act inh, marked with its call; RFP signal change, %; measured here: RFP expression control read;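 0 = vehicle wells; hits needed this value within 50% of zero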
Numbers without * were called inactive; i = inactive; u = inconclusive; x = no result given; & = joins results of further samples; [ ] = another dose, or the depositor's remark. An excerpt. The share of hits here may be higher or lower than overall.

Start of the listing, in advance, 3 compounds:
SMILES	Env fusion inh	Yeast UUG start	PABP FP inh	Rce1 inh	MT1-MMP act inh	MT1-MMP act inh RFP	CSC inhib	eIF4H FP inh
O=C(Nc1cc(Cl)ccc1Cl)c1ccc(OC(=O)c2ccco2)cc1	-61	-22	-1	i	-3	1	-7	-2
COc1ccc(N2CCN(CCNS(=O)(=O)c3ccc(C)cc3)CC2)cc1	-2	0	3	i	4	0	x	-4
O=C(CN1CCN(S(=O)(=O)c2ccc(F)c(Cl)c2)CC1)N1CCOCC1	x	-15	x	x	0	2	10	x

All compounds of this part, repeating the preview:
SMILES	Env fusion inh	Yeast UUG start	PABP FP inh	Rce1 inh	MT1-MMP act inh	MT1-MMP act inh RFP	CSC inhib	eIF4H FP inh
O=C(Nc1cc(Cl)ccc1Cl)c1ccc(OC(=O)c2ccco2)cc1	-61	-22	-1	i	-3	1	-7	-2
COc1ccc(N2CCN(CCNS(=O)(=O)c3ccc(C)cc3)CC2)cc1	-2	0	3	i	4	0	x	-4
O=C(CN1CCN(S(=O)(=O)c2ccc(F)c(Cl)c2)CC1)N1CCOCC1	x	-15	x	x	0	2	10	x
COc1ccc(N2C(=O)C(CC(=O)Nc3ccc(F)cc3)N(CCc3ccc(OC)c(OC)c3)C2=O)cc1 (stereo not given)	28	6	-6	i	2	2	-3	-5
O=C(NCC1CCCO1)C1c2ccccc2Oc2ccccc21 (stereo not given)	-8	x	-11	i	-6	3	-7	-10
Cc1ccc(S(=O)(=O)/N=S(\C)CC2CC2(Cl)Cl)cc1 (stereo not given)	-39	2	11	i	-2	3	-11	-8
CCOC(=O)C1=C(C)C(c2ccc(OC)cc2)NC(=S)N1 (stereo not given)	-38	-17	-5	i	1	1	-11	-1
COC(=O)c1sc(C(C)(C)C)cc1CSc1ccccc1	13	x	-5	i	-4	-3	-2	-3
Cc1ccc(NC(=O)C2CCN(S(=O)(=O)c3ccc(N4CCCC4=O)cc3)CC2)cc1Cl	13	21	-6	i	2	-32	0	-3
Oc1ccc2ccccc2c1CN1CC2CCC(CC2)C1	u	-8	x	x	1	-1	x	x
O=C(NOC(=O)c1cc(Br)ccc1Cl)c1cccs1	-28	-15	-1	x	-8	4	-1	7
Cc1ccc(NC(=O)c2ccc([N+](=O)[O-])cc2Cl)nc1	-285	x	3	x	8	5	-1	-14
COc1ccccc1OCCOc1ccc(/C=N/n2cnnc2)cc1	x	x	-8	x	0	-2	2	9
CC1CCc2c(nc3sc4c(c3c2N)CCCC4)C1 (stereo not given)	-29	-15	1	i	0	-6	23	3
COc1cccc(Cn2c(Oc3cccc(C)c3)nc3c2c(=O)n(C)c(=O)n3C)c1	x	-13	3	i	-11	-12	-5	-3
COc1cc(C)ccc1S(=O)(=O)N1CCCCCC1	16	x	3	x	-2	0	-3	-11
O=C(COc1cccc([N+](=O)[O-])c1)N/N=C/c1ccco1	1	x	0	i	1	4	-9	15
Cc1c(C(=O)N2CCc3ccccc3C2)sc2nc(-c3ccccc3)cn12	-9	-9	-5	i	3	-5	-5	0
C=CCNC(=S)/N=c1/ccccn1Cc1ccccc1	19	-19	13	i	1	-17	-4	-9
CCN(CC)C(=O)Cn1cc(C(=O)C(=O)NCCCn2ccnc2)c2ccccc21	1	x	-8	i	-4	3	-9	-6
Cc1nc2cc(Cl)ccc2n1-c1ccccc1	0	-5	10	i	-4	0	-24	-5
Cc1nn(-c2ccccc2)c2[nH]c(C(F)(F)F)cc(=O)c12	1	-25	-2	i	-5	2	10	-14
O=C(COC(=O)Cc1c[nH]c2ccccc12)NC1CCCCC1	0	x	3	i	-7	-2	13	-2
COC(=O)c1cc(OC)c(OC)cc1NC(=S)N1CCN(Cc2ccccc2)CC1	-15	-14	4	i	-2	1	5	-4
CCOc1ccc2[nH]c3c(NCC(C)C)ncnc3c2c1	x	x	4	i	9	-1	14	-6

Continuation:
SMILES	Env fusion inh	Yeast UUG start	PABP FP inh	Rce1 inh	MT1-MMP act inh	MT1-MMP act inh RFP	CSC inhib	eIF4H FP inh
Clc1ncn(CCOc2ccccc2)c1Cl	-25	x	-6	x	3	4	-12	6
CCCCn1c(N)c(N(C(=O)CSc2nnnn2-c2ccccc2C)C2CCCC2)c(=O)[nH]c1=O	7	-7	x	x	-10	-8	x	x
COC(=O)C1c2ccccc2-c2ccccc21	15	-3	-3	x	1	0	x	-11
Nc1nc(SCc2ccccc2Cl)nc2nc3c(cc12)CCCC3	13	-21	-8	i	-3	-8	1	-7
COc1ccc(C)cc1S(=O)(=O)NNc1nc(C)cc(C)n1	2	x	x	x	0	7	3	x
O=C(CSc1nc2ccccc2c(=O)n1-c1ccccc1)N1CCCc2ccccc21	19	x	7	i	1	-7	-1	2
O=C(O)c1oc2ccccc2c1-n1cccc1	4	-9	18	x	-1	3	-16	-1
COc1ccc(F)cc1C(=O)C1CCCN(Cc2cn(C)c3ccccc23)C1 (stereo not given)	41	2	-6	i	-4	0	11	2
CCCCCc1ccc(-c2cn(Cc3ccc(C(=O)c4ccccc4)cc3)nn2)cc1	-79	-3	2	i	-17	-4	43	-1
CCO[C@H]1OC(C(=O)Nc2ccccc2)=C[C@@H](c2ccc(Br)cc2)[C@@H]1CCCO	-5[16.7 µM]	3&10	-5	i	-5	-7	-7	-8
CSc1ccccc1NC(=O)CSc1nncs1	-9	x	-2	i	2	5	-24	0
COc1ccc(COn2c(=O)c(C)[n+]([O-])c3ccccc32)cc1OC	x	-1	-4	i	-35	3	4	0
COc1ccc(CCN(C)C(=O)c2cccc(S(=O)(=O)NCc3ccccc3)c2)cc1OC	-4	-13	44	i	7	-5	-6	12
COc1ccc(NC(=O)CSCC(=O)Oc2c(OC)cccc2OC)cc1	12	6	x	i	-2	1	0	x
COc1cccc(CNc2ccc3c(c2)ncn3C(C)C)c1OC	-32	-20	-7	i	5	0	-13	7
Cc1ccc(S(=O)(=O)NCC2CCC(C(=O)NCCCOC(C)C)CC2)cc1 (stereo not given)	x	x	-3	i	x	x	-17	-12
CCOC(=O)C1CCCN(S(=O)(=O)c2cnc(Cl)c(Br)c2)C1 (stereo not given)	-10	-20	-2	i	-6	-3	14	-2
O=C(NC1CC1)c1ccc(F)cc1Cl	-11	-6	-5	i	0	1	-16	7
O=c1c2[nH]cnc2n(-c2ccccc2)c(=O)n1Cc1ccccc1	-8	7	-4	i	3	2	-9	0
Cc1ccc(NC(=O)C(Cc2ccccc2)NC(=O)c2ccco2)cc1 (stereo not given)	-35	-3	-3	i	-4	-8	-9	-1
COc1cccc(NS(=O)(=O)c2ccc(NC(C)=O)cc2)c1	-7	-8	10	i	3	-7	-4	-9
Cc1ccc(S(=O)(=O)N[C@@H](C)C(=O)N2CCC(C(=O)N3CCC[C@H]3C(=O)O)CC2)cc1	x	-13	1	i	1	5	-4	7
CC(/C=N/NC(=O)c1cc(-c2ccc(Cl)cc2)nc2ccccc12)=C\c1ccco1	-259	-18	0	i	5	-7	14	6
CCN(C(=O)COC(=O)CSc1ccc([N+](=O)[O-])cc1)C1CCS(=O)(=O)C1 (stereo not given)	0	-25	-8	i	1	3	x	-10
O=C1CN(Cc2ccccc2)C(=NCc2ccco2)S1	-69	-10	6	i	-14	0	0	2

Next section.
SMILES	Env fusion inh	Yeast UUG start	PABP FP inh	Rce1 inh	MT1-MMP act inh	MT1-MMP act inh RFP	CSC inhib	eIF4H FP inh
O=C(Nc1ccccc1)N(CCCN1CCOCC1)Cc1cc2cc3c(cc2[nH]c1=O)OCCO3	x	-5	-16	i	2	6	1	4
COc1ccc(-c2nnc(SCC(=O)N3CCCC3)o2)c(OC)c1	-15	-13	16	i	1	2	-8	-1
CC(C)Nc1nc(NC(N)=S)nc(NC(C)(C)C)n1	-15	x	5	i	1	3	-10	-2
COc1ccccc1-c1noc2c1C(=O)N(Cc1cn(-c3ccc(Cl)cc3)nn1)CC2	23	0	x	x	-1	-21	x	x
CC(NC(=S)Nc1ccc(F)cc1)c1ccccc1 (stereo not given)	-19	-2	-3	i	3	-11	1	-9
CCN(CC)c1ccc(/C=C/c2ccc3ccc(OC)cc3[n+]2CC)cc1	40	37	-4	i	29	54	45	-2
O=C(N/N=C/c1c[nH]c2ccccc12)c1cc2ccccc2o1	0	x	12	i	-3	-4	44	-8
CCOC(=O)C1CCN(c2ccc(C(N)=O)cc2[N+](=O)[O-])CC1	-31	x	2	i	5	-4	-17	-3
C=CCOc1ccc(/C=N/n2nnnc2N)cc1OC	-3	x	x	i	6	4	-6	x
CN(Cc1ccccc1)Cc1nc2c(c(=O)n(C)c(=O)n2C)n1Cc1ccc(F)cc1	4	7	-13	i	-4	-1	-18	-9
CN(C(=O)c1cc(C(=O)N(C)c2ccccc2)cc([N+](=O)[O-])c1)c1ccccc1	3	-6	8	i	-4	-5	-28	-9
COc1cc(Cl)c(NS(=O)(=O)c2c(C(=O)N3CCCC3)c(C)n(C)c2C)c(OC)c1	2	-1	-7	i	4	7	15	-12
CC(O)(C#CCN1CCOCC1)c1ccccc1 (stereo not given)	-48	4	-3	i	1	-9	x	-11
Cc1ccc2nc(-c3ccc(-c4ccccn4)s3)cn2c1	-264	-8	10	i	0	2	-2	10
CCCCCCOc1ccc(C(CC(=O)O)C(N)=O)cc1 (stereo not given)	x	-10	-4	i	5	1	-9	10
COc1cccc(C(=O)N2CCN(c3ncccn3)CC2)c1	x	-11	-1	i	2	1	-11	-5
N=c1n(CCCOc2ccc(Br)cc2)c2ccccc2n1CC(N)=O	13	-6	9	i	-10	-5	-7	-12
COCCCN(C(=O)CCOc1ccccc1C)c1c(N)n(Cc2ccccc2)c(=O)[nH]c1=O	0	-10	x	i	2	-2	-11	x
COc1ccccc1CCC(=O)Nc1cccc(S(=O)(=O)N2CCOCC2)c1	-17	-39	-4	i	2	-1	-10	0
CC(C)c1cc(N=NC(N)=O)cc(C(C)C)c1O	-9	-27	-13	i	3	4	-13	-8
Cc1cc(Br)ccc1NC(=O)CSCc1c(C)noc1C	9	2	x	x	3	0	-2	x
COc1cccc(N2CCN(C(=O)c3cc4c(s3)-c3ccccc3OC4)CC2)c1	-1	-7	-2	i	5	6	42	9
Cc1ccccc1OC(C)C(=O)Nc1ccc2c(c1)OCO2 (stereo not given)	-31	-5	0	i	3	0	3	-5
CC(=O)Nc1ccc(S(=O)(=O)N(C)C2CCN(C)CC2)cc1	7	-1	4	x	3	4	-10	0
CC(C)(C)NC(=O)COC(=O)c1ccccc1C(=O)c1ccccc1	-1	x	1	i	-3	-1	0	-9

The list goes on:
SMILES	Env fusion inh	Yeast UUG start	PABP FP inh	Rce1 inh	MT1-MMP act inh	MT1-MMP act inh RFP	CSC inhib	eIF4H FP inh
O=S(=O)(/C=C/c1cccc(Br)c1)N1CCOCC1	1	-9	x	i	-2	0	-6	x
CCCCCC(=O)Nc1cccc(C2=NOC3(C2)C[C@@H](C(N)=O)N(C(=O)c2ccc(Cl)cc2)C3)c1 (stereo not given in full)	-3	-7	8	i	-3	-5	-10	2
Cc1csc(NC(=O)c2ccc(S(=O)(=O)N3CCN(C)CC3)cc2)n1	13	-10	-5	i	4	3	-7	-6
CC(C)CNC(=O)N1c2ccccc2Sc2ccccc21	11	x	-7	i	-4	-1	7	-4
COc1cc(OC)cc(C(=O)NCC(=O)OCC(=O)c2cc(OC)ccc2OC)c1	-12	x	-2	i	2	5	0	-8
Cc1ccc(NC(=O)CSc2nnc(-c3cccnc3)n2-c2ccc(C)cc2)cc1	x	-20	1	i	-1	-1	0	8
CC(=O)Nc1cccc(C(=O)OCc2ccc(C(=O)Oc3ccc(Cl)cc3)cc2)c1	-14	6	-2	i	7	2	-9	-5
O=C(Nc1ccccc1)C1=C[C@@H](c2ccc(Br)cc2)C[C@@H](OCCCCO)O1	-127	-14	-4	i	4	1	26	7
